Screening data from PubChem.
NOMO-1 viab – STK33 inhibitor candidate reducing NOMO-1 cell viability | 7.5% of 37,000 active | inhibition, % (no concentration beside the values) | NOMO-1 AML viability, CellTiter-Glo luminescence, 72 h;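 active = most replicates above 80%; inconclusive = exactly half above 80%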;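 note: wells of about 30 µL received 25 nL stock; 0% = median of vehicle wells and 100% = reference inhibitor level; the first replicate is given; inactives centre near 10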
* = called active by the depositor; u = inconclusive.

Start of the data: the first 4 entries, to show the layout:
SMILES | NOMO-1 viab
COc1ccc(OC)c(NC(=O)CSc2nncc3ccccc23)c1 | 21.4
O=C(CSc1nc2ccccc2c(=O)n1Cc1ccco1)c1ccc(Br)cc1 | 2.6
Cc1ccc(OCC(=O)Nc2ccc3oc(-c4cccnc4)nc3c2)cc1C | 20.3
C[C@H](CO)N1C[C@H](C)[C@H](CN(C)S(=O)(=O)c2cccs2)Oc2ccc(NC(=O)CCCN(C)C)cc2C1=O | 36.0

The list itself, previewed entries included:
SMILES | NOMO-1 viab
COc1ccc(OC)c(NC(=O)CSc2nncc3ccccc23)c1 | 21.4
O=C(CSc1nc2ccccc2c(=O)n1Cc1ccco1)c1ccc(Br)cc1 | 2.6
Cc1ccc(OCC(=O)Nc2ccc3oc(-c4cccnc4)nc3c2)cc1C | 20.3
C[C@H](CO)N1C[C@H](C)[C@H](CN(C)S(=O)(=O)c2cccs2)Oc2ccc(NC(=O)CCCN(C)C)cc2C1=O | 36.0
CC(=O)c1ccc(OC(=O)C(Cc2ccccc2)N2C(=O)C3C4C=CC(C5CC45)C3C2=O)cc1 (stereo unspecified) | 25.4
Cc1cccc(C)c1NC1=NC(C)(CO)CS1 (stereo unspecified) | -9.0
C[C@@H]1CN([C@H](C)CO)C(=O)c2cc(NC(=O)Nc3ccc4c(c3)OCO4)ccc2O[C@H]1CN(C)S(=O)(=O)c1ccccc1 | 11.6
C[C@H](CO)N1C[C@H](C)[C@@H](CN(C)S(=O)(=O)c2ccc(F)cc2)Oc2ccc(NC(=O)c3ccncc3)cc2C1=O | -11.2
CC(C)NC(=O)N(C)C[C@@H]1Oc2c(NC(=O)Nc3ccccc3)cccc2C(=O)N([C@@H](C)CO)C[C@@H]1C | 11.4
O=C(CSc1nnc(-c2ccco2)n1-c1ccccc1)N1CCOCC1 | -33.4
C[C@@H]1CCCCO[C@H](CN(C)S(=O)(=O)c2cn(C)cn2)[C@@H](C)CN([C@H](C)CO)C(=O)c2cc(NC(=O)Nc3ccc(C(F)(F)F)cc3)ccc2O1 | 14.5
C[C@@H]1CN([C@H](C)CO)C(=O)c2cc(NC(=O)Nc3ccc(F)cc3)ccc2O[C@@H]1CN(C)S(C)(=O)=O | 26.6
Cc1cccc(N(CC(=O)Nc2ccccc2-c2ccccc2)S(C)(=O)=O)c1C | 14.1
Cc1ccc([N+](=O)[O-])cc1NC(=O)C(C)NS(=O)(=O)c1ccc(F)cc1 (stereo unspecified) | 1.2
C[C@@H]1CN([C@@H](C)CO)C(=O)c2cc(NS(=O)(=O)c3cccs3)ccc2O[C@H]1CN(C)Cc1ccc(C(F)(F)F)cc1 | 33.0
COC1=CC(C)c2c(c(OC)c3occ(C)c3c2C)C1=O (stereo unspecified) | 57.9
C[C@H]1CN([C@@H](C)CO)C(=O)c2cccc(NS(=O)(=O)c3cn(C)cn3)c2O[C@@H]1CN(C)Cc1ccccc1 | -7.1
CCCN1Cc2cccc(C(N)=O)c2C1=O | 17.2
C[C@H]1CN([C@@H](C)CO)C(=O)c2cccc(NC(=O)Nc3ccc4c(c3)OCO4)c2O[C@H]1CN(C)Cc1ccc(C(=O)O)cc1 | -4.2
C[C@H](CO)N1C[C@H](C)[C@@H](CN(C)Cc2ccncc2)Oc2ccc(NS(=O)(=O)c3ccccc3)cc2C1=O | 2.4
C[C@H](CO)N1C[C@H](C)[C@H](CN(C)C(=O)Nc2ccc(C(F)(F)F)cc2)Oc2ccc(NC(=O)CCC(F)(F)F)cc2C1=O | -5.5
COc1ccc(OC)c(-n2c(=S)[nH]c3cc(C(=O)Nc4ccc(C)c(Cl)c4)ccc3c2=O)c1 | -10.8
CCc1c(C)sc(NC(=O)C2CC(c3cc(Cl)c(OC)cc3OC)=NO2)c1C#N (stereo unspecified) | -1.4
COc1cc2nc3occc3c(OC)c2cc1OCC(OC(C)=O)C(C)(C)OC(C)=O (stereo unspecified) | 22.8
O=C(CN(C1CCCCC1)S(=O)(=O)c1ccc(Br)cc1)Nc1c(F)cccc1F | 13.5

Five entries from above, in markdown:
| molecule | NOMO-1 viab |
| --- | --- |
| CC(C)NC(=O)N(C)C[C@@H]1Oc2c(NC(=O)Nc3ccccc3)cccc2C(=O)N([C@@H](C)CO)C[C@@H]1C | 11.4 |
| O=C(CSc1nnc(-c2ccco2)n1-c1ccccc1)N1CCOCC1 | -33.4 |
| C[C@@H]1CCCCO[C@H](CN(C)S(=O)(=O)c2cn(C)cn2)[C@@H](C)CN([C@H](C)CO)C(=O)c2cc(NC(=O)Nc3ccc(C(F)(F)F)cc3)ccc2O1 | 14.5 |
| C[C@@H]1CN([C@H](C)CO)C(=O)c2cc(NC(=O)Nc3ccc(F)cc3)ccc2O[C@@H]1CN(C)S(C)(=O)=O | 26.6 |
| Cc1cccc(N(CC(=O)Nc2ccccc2-c2ccccc2)S(C)(=O)=O)c1C | 14.1 |

Quoted at random: three entries already listed, in no set order.
SMILES | NOMO-1 viab
Cc1ccc(OCC(=O)Nc2ccc3oc(-c4cccnc4)nc3c2)cc1C | 20.3
O=C(CSc1nc2ccccc2c(=O)n1Cc1ccco1)c1ccc(Br)cc1 | 2.6
CCCN1Cc2cccc(C(N)=O)c2C1=O | 17.2

(next part)
SMILES | NOMO-1 viab
C[C@@H]1CN([C@H](C)CO)C(=O)c2cccc(NC(=O)Nc3cccc4ccccc34)c2O[C@@H]1CN(C)S(=O)(=O)c1ccccc1 | 36.1
Cc1ccc(S(=O)(=O)Nc2ccc3c(c2)C(=O)N([C@H](C)CO)C[C@H](C)[C@H](CN(C)CC2CCCCC2)OCCCC[C@@H](C)O3)cc1 | 69.9
C[C@H]1CN([C@@H](C)CO)C(=O)Cc2cc(NS(C)(=O)=O)ccc2O[C@@H]1CN(C)Cc1ccc(Oc2ccccc2)cc1 | 19.2
C[C@@H]1CN([C@@H](C)CO)C(=O)c2cc(NC(=O)Cn3cnnn3)ccc2O[C@@H]1CN(C)Cc1ccc(Oc2ccccc2)cc1 | -5.4
CC(=O)c1ccc(NC(=O)CSc2nc3cc(C)c(C)cc3[nH]2)cc1 | 8.1
CC(=O)Nc1ccc(S(=O)(=O)Nc2cccc(-c3cn4ccc(C)cc4n3)c2)cc1 | 17.7
O=C(CSc1nnc(-c2ccc(Cl)cc2)n1-c1ccccc1)Nc1ccccc1C(F)(F)F | 13.8
CC(C)C(=O)NC(c1cccc([N+](=O)[O-])c1)c1c(O)ccc2ccccc12 (stereo unspecified) | 33.1
Cc1c(C)c(C)c(C(=O)CCc2cccc(NC(=O)C3CCC3)c2)c(C)c1C | 65.8
O=C(CCc1ccc(O)cc1)c1c(O)cc(O)cc1O | -13.6
CS(=O)(=O)N(CC(=O)Nc1cc(Cl)ccc1Oc1ccccc1)c1ccc(F)c(Cl)c1 | 26.0
C[C@H]1CN([C@@H](C)CO)C(=O)c2cccc(NS(=O)(=O)c3cccs3)c2O[C@@H]1CN(C)Cc1ccncc1 | -6.0
Cc1ccc(S(=O)(=O)Nc2ccc3c(c2)CC(=O)N([C@H](C)CO)C[C@@H](C)[C@H](CN(C)S(=O)(=O)c2cccs2)O3)cc1 | 1.6
Cc1ccc(NS(=O)(=O)c2cccc(C(=O)Nc3ccccc3)c2)cc1 | 26.9
C[C@H](CO)N1C[C@H](C)[C@@H](CN(C)Cc2ccc(-c3ccccc3)cc2)Oc2ccc(NC(=O)CCC(F)(F)F)cc2C1=O | 25.3
O/N=C/c1c(O)c(Br)cc2oc3c(c12)CCCC3 | u
Cc1ccc(C)c(C(Nc2ccccn2)c2cc(Cl)c3cccnc3c2O)c1 (stereo unspecified) | 113.3*
Cc1ccc(S(=O)(=O)N(C)C[C@H]2Oc3c(NC(=O)Nc4ccc(C(F)(F)F)cc4)cccc3C(=O)N([C@@H](C)CO)C[C@@H]2C)cc1 | 62.5
C[C@H](CO)N1C[C@H](C)[C@H](CN(C)S(=O)(=O)c2cccs2)Oc2ccc(NC(=O)Cc3cn(C)c4ccccc34)cc2CC1=O | 17.6
COC(=O)c1cccc(NC(=O)COc2ccc(I)cc2)c1 | 22.8
C[C@H]1CN([C@@H](C)CO)C(=O)c2cc(NC(=O)Nc3cccc4ccccc34)ccc2O[C@H]1CN(C)Cc1ccc(C(F)(F)F)cc1 | 0.8
CC(C)NC(=O)Nc1ccc2c(c1)CC(=O)N([C@@H](C)CO)C[C@H](C)[C@@H](CN(C)C(=O)NC1CCCCC1)O2 | 21.0
O=S(=O)(Nc1nc2ccccc2nc1Nc1ccccc1F)c1ccc(Cl)cc1 | 27.9
CCOc1ccccc1NC(=O)CN1C(=O)C(=O)c2ccccc21 | 65.8
Cc1ccc(NC(=S)C(C#N)C(N)=O)cc1Cl (stereo unspecified) | 107.7*
SMILES | NOMO-1 viab
Cc1noc(C)c1S(=O)(=O)Nc1ccc2c(c1)C(=O)N([C@H](C)CO)C[C@H](C)[C@H](CN(C)C(=O)Nc1cccc3ccccc13)O2 | 14.6
Cc1ccc(NC(=O)c2ccc(NCc3cccnc3)c([N+](=O)[O-])c2)cc1Cl | 21.8
C[C@@H]1CN([C@H](C)CO)C(=O)c2cccc(NC(=O)Nc3ccc(C(F)(F)F)cc3)c2O[C@H]1CN(C)CC1CCCCC1 | u
CC(C)NC(=O)Nc1ccc2c(c1)C(=O)N([C@H](C)CO)C[C@@H](C)[C@H](CN(C)Cc1ccc(C(=O)Nc3ccccc3N)cc1)O2 | 15.3
C[C@@H]1CCCCO[C@@H](CN(C)Cc2ccncc2)[C@@H](C)CN([C@H](C)CO)C(=O)c2cc(NC(=O)Nc3ccc(C(F)(F)F)cc3)ccc2O1 | 52.6
Cc1ccc(S(=O)(=O)N(C)CC(=O)Nc2ncc(C(F)(F)F)cc2Cl)cc1 | 10.6
C[C@@H]1CCCCO[C@@H](CN(C)C(=O)Nc2ccc(C(F)(F)F)cc2)[C@@H](C)CN([C@H](C)CO)C(=O)c2cc(NS(=O)(=O)c3cccs3)ccc2O1 | 114.3*
CC(C)NC(=O)N(C)C[C@@H]1OCCCC[C@@H](C)Oc2ccc(NC(=O)CCCN(C)C)cc2C(=O)N([C@H](C)CO)C[C@@H]1C | 11.5
Cc1nn(Cc2cccc(C(=O)Nc3ccccc3F)c2)c(C)c1Cl | -2.0
COc1ccc(N(Cc2cc3cc(C)ccc3[nH]c2=O)C(=O)c2ccccc2)cc1 | 21.9
CNC[C@@H]1Oc2ccc(NC(=O)Nc3ccc(C(F)(F)F)cc3)cc2C(=O)N([C@@H](C)CO)C[C@H]1C | -5.5
C[C@H](CO)N1C[C@H](C)[C@@H](CN(C)C(=O)Nc2ccc(C(F)(F)F)cc2)Oc2c(NS(=O)(=O)c3cn(C)cn3)cccc2C1=O | 9.3
C[C@@H]1CN([C@H](C)CO)C(=O)c2cccc(NS(=O)(=O)c3ccccc3)c2O[C@@H]1CN(C)S(=O)(=O)c1ccc(Cl)cc1 | 24.3
CC(=O)N[C@@H](CSC/C=C(\C)CC/C=C(\C)CC/C=C(\C)CCC=C(C)C)C(=O)O | 32.1
COC(=O)c1ccccc1NC(=O)CSc1nnc(-c2ccco2)n1-c1ccccc1 | -23.1
Cn1c(SCc2nc(-c3ccc(Cl)cc3)no2)nnc1-c1cccs1 | -17.7
CCN(c1nc(C)cc(OC)n1)S(=O)(=O)c1ccc(C)cc1 | 17.7
O=C(Nc1ccccc1)OC1CCCC1 | 35.6
Cc1noc(C)c1S(=O)(=O)Nc1ccc2c(c1)C(=O)N([C@H](C)CO)C[C@@H](C)[C@H](CN(C)C(=O)NC1CCCCC1)O2 | 16.8
Cc1ccc(S(=O)(=O)N(C)C[C@@H]2Oc3ccc(NC(=O)NC(C)C)cc3CC(=O)N([C@H](C)CO)C[C@@H]2C)cc1 | 12.2
Cc1noc(C)c1S(=O)(=O)Nc1ccc2c(c1)CC(=O)N([C@H](C)CO)C[C@@H](C)[C@H](CN(C)C(=O)NC(C)C)O2 | -9.2
C[C@@H]1CN([C@H](C)CO)C(=O)c2cc(NS(C)(=O)=O)ccc2O[C@@H]1CN(C)Cc1ccc2c(c1)OCO2 | -1.4
COc1ccc(NC(=O)Nc2ccc3c(c2)C(=O)N([C@H](C)CO)C[C@H](C)[C@@H](CN(C)S(C)(=O)=O)OCCCC[C@@H](C)O3)cc1 | 6.6
O=C(CC1(O)C(=O)Nc2ccc(I)cc21)c1ccccn1 (stereo unspecified) | 89.9*
CC1C(O)C(N(C)C)CC2COCC21 (stereo unspecified) | 13.4
SMILES | NOMO-1 viab
C[C@H]1CN([C@@H](C)CO)C(=O)Cc2cc(NS(=O)(=O)c3ccc(Cl)cc3)ccc2O[C@H]1CN(C)Cc1ccc(C(=O)O)cc1 | 16.2
Cc1ccccc1N1C(=O)CC(SCC(=O)Nc2ccccc2)C1=O (stereo unspecified) | 15.1
COc1ccc(CN(C)C[C@@H]2Oc3ccc(NC(=O)Nc4ccc5c(c4)OCO5)cc3C(=O)N([C@@H](C)CO)C[C@@H]2C)cc1 | 26.5
CNC(=O)CN(C#N)c1nc(N(C)C)nc(N(C)C)n1 | -2.3
CC(C)(C)OC(=O)N1Cc2ccccc2C[C@H]1C(=O)NCCN1CCOCC1 | 4.1
COc1ccc(S(=O)(=O)N(C)C[C@H]2Oc3ccc(NC(=O)Nc4ccccc4)cc3CC(=O)N([C@@H](C)CO)C[C@@H]2C)cc1 | 17.8
Cc1nnc(SCC(=O)Nc2cc(Cl)c(Cl)cc2Cl)s1 | 38.3
COc1ccc(S(=O)(=O)N(C)C[C@H]2Oc3ccc(NC(=O)NC4CCCCC4)cc3C(=O)N([C@@H](C)CO)C[C@@H]2C)cc1 | 12.5
CCCC(O)c1ccc(C)cc1CCCCCC(=O)O (stereo unspecified) | 4.2
COc1ccc(CN(C)C[C@H]2Oc3ccc(NS(=O)(=O)c4ccc(Cl)cc4)cc3CC(=O)N([C@H](C)CO)C[C@H]2C)cc1 | 25.9
COc1ccccc1Cn1c(NCC(C)O)nc2c1c(=O)n(C)c(=O)n2C (stereo unspecified) | -9.2
OCc1nc(-c2cc(C(F)(F)F)cc(C(F)(F)F)c2)cs1 | 33.5
CNC[C@@H]1Oc2c(NS(=O)(=O)c3ccc(OC)cc3)cccc2C(=O)N([C@@H](C)CO)C[C@H]1C | 20.3
C[C@H]1CN([C@@H](C)CO)C(=O)Cc2cc(NC(=O)Nc3ccc4c(c3)OCO4)ccc2O[C@H]1CN(C)Cc1ccc(Oc2ccccc2)cc1 | 18.3

Some of the compounds tested (hit frequency here may not be typical).
